Screens as filed in PubChem.
GLA inh pH 4.5: alpha-galactosidase A (human) inhibition, pH 4.5 | purified enzyme, 4-MU-alpha-Gal fluorescence, pH 4.5 | activity change, negative = inhibition, % at 105 µM | 230,000 tested, under 10 active; inconclusive = small, poorly fitted or top-dose-only inhibition, or a rising curve; inactive = flat fitted curve, though single readings scatter; no compound was filed as active;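 also: 0% = full activity with enzyme and -100% = basal without enzyme; dose as in the result columns while the protocol names 77 µM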
Target sequence (P06280 whole entry, looked up): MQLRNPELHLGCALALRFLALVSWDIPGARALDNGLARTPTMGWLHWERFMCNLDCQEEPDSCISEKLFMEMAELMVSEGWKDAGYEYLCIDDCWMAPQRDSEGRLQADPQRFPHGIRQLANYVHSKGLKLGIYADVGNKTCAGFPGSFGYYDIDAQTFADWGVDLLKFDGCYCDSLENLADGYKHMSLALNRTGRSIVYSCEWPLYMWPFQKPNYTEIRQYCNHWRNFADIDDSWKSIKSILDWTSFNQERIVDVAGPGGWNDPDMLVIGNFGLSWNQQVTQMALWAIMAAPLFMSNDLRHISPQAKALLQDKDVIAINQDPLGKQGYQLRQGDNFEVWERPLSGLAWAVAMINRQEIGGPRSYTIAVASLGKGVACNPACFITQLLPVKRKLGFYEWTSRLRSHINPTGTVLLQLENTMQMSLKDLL
Rango dissoc inh: prevents RanGTP from dissociating the Rango-importin beta complex; O95149+P62826; Biochemical FRET Rango-importin beta, RanGTP-induced dissociation; Potency, µM (titrated, usually from 46.1 µM), without a hit: top-dose activity change, negative = inhibition; hit rate 0.071% among 340,000; AID 540253; active means falling FRET ratio curve, often poorly fitted, with flat reads before Ran was added; inconclusive means other falling curves, or compound fluorescence or quenching; inactive means flat or rising ratio curve;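 also: potency is read from the fitted curve at half-maximal effect; % of control where 0% means no effect; nearly all actives have a fitted effect of over 45% in size; -100% = wells without RanGTP and RCC1; the record marks most hits as doubtful in a second field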
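Rango/importin beta premix (0.1/0.25 uM final), PBS + 1 mM DTT + 0.02% Tween-20 + 0.1% BSA; cpd 5 min RT; FRET pre-read; + RanGTP-RCC1 (0.6 uM Ran, 2 mM GTP, 0.2 uM RCC1); 45 min RT; FRET post-read, ex 430, em 486/530 nm.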
Rango-impB inh: Rango-importin beta binding inhibition | Q14974 | Rango CFP/YFP FRET sensor + importin beta, 45 min | Potency, µM (highest dose often 92.2 µM), without a hit: at the top dose inhibition of complex formation | hit rate 0.031% among 340,000 | AID 540263; active = rising FRET ratio curve, often small or poorly fitted; inconclusive = mostly compound fluorescence or quenching in the first reads; inactive = flat curves in all reads;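 also: potency is read from the fitted curve at half-maximal effect; 0% = DMSO wells and 100% = buffer wells lacking importin beta; nearly all actives have a fitted effect of over 15% in size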
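FRET biosensor (snurportin 1 IBB flanked by EYFP and cerulean), 50 nM, with compound 5 min, then 0.125 microM importin beta in PBS, 1 mM DTT, 0.02% Tween-20, 0.1% BSA. CFP/YFP ratio read after 45 min at room temperature; pre-read flags interference.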
miR-21 FLuc: raises the signal of a miR-21 reporter; HeLa miR-21 FLuc reporter, luciferase, 48 h; Potency, µM (doses to about 38.3 µM), inactives show at the top dose reporter change, positive = more light; 340,000 tested, under 10 active; AID 2288; active = well fitted rising curve with a large enough effect; inconclusive = small, poorly fitted or top-dose-only effect; inactive = no such curve, though single readings can be large or run the other way;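 also: % of control where 0% means no effect; miR-21 action dims this reporter so a rising signal means less miR-21 action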
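Compounds were titrated across several concentrations (up to approximately 40 uM) and incubated 48 hours with HeLa miR-21-FLuc reporter cells (miR-21 target sequence downstream of FLuc, endogenous miR-21). Readout was firefly luciferase luminescence after lytic detection reagent.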
* marks the source's active call; other numbers are inactive results; ? = inconclusive; · = not tested or not shown; [ ] = another dose, or the depositor's remark.

The first 6 compounds (preview)
Value order: GLA inh pH 4.5	Rango dissoc inh	Rango-impB inh	miR-21 FLuc
1) CCCOC(=O)c1c(N)sc(C(=O)OCC)c1C
 : -9	0%	-3.8%	-63%
2) CCOC(=O)CN1C(=O)N(CC(=O)OCC)C(c2ccccc2)(c2ccccc2)C1=O
 : ·	8%	-0.1%	0%
3) COc1ccccc1NC(=S)NCc1ccc2c(c1)OCO2
 : 0	1%	-1.9%	-8%
4) Cc1csc(NC(=O)Cc2ccc(Cl)cc2)n1
 : ·	0%	4.1%	·
5) CCOC(=O)N1CCN(C(=S)Nc2ccc(C)c(C)c2)CC1
 : 7	-10%	-1.5%	-5%
6) Oc1csc(Cc2nc(-c3ccc(-c4ccccc4)cc3)cs2)n1
 : -9	-17%	7.3%	-23%

The list itself, previewed entries included:
Value order: GLA inh pH 4.5	Rango dissoc inh	Rango-impB inh	miR-21 FLuc
1) CCCOC(=O)c1c(N)sc(C(=O)OCC)c1C
 : -9	0%	-3.8%	-63%
2) CCOC(=O)CN1C(=O)N(CC(=O)OCC)C(c2ccccc2)(c2ccccc2)C1=O
 : ·	8%	-0.1%	0%
3) COc1ccccc1NC(=S)NCc1ccc2c(c1)OCO2
 : 0	1%	-1.9%	-8%
4) Cc1csc(NC(=O)Cc2ccc(Cl)cc2)n1
 : ·	0%	4.1%	·
5) CCOC(=O)N1CCN(C(=S)Nc2ccc(C)c(C)c2)CC1
 : 7	-10%	-1.5%	-5%
6) Oc1csc(Cc2nc(-c3ccc(-c4ccccc4)cc3)cs2)n1
 : -9	-17%	7.3%	-23%
7) O=c1c2c(nc3nc(Cc4ccccc4)[nH]n13)CCC2
 : -3	19%	-0.7%	-1%
8) Cc1nn(CC(=O)OCC(=O)NCCc2ccc(S(N)(=O)=O)cc2)c(C)c1[N+](=O)[O-]
 : ·	-6%	-4.0%	·
9) CC(Sc1nnc(N)s1)C(=O)Nc1ccc2c(c1)OCO2 (configuration not stated)
 : ·	-1%	-0.4%	·
10) O=Cc1ccc(OCc2cn3ccccc3n2)cc1
 : 4	-17%	0.3%	-14%
11) O=C(NCCCN1CCOCC1)C1(c2ccccc2)CCCC1
 : 0	-13%	-3.0%	-2%
12) CN(C1=NS(=O)(=O)c2ccccc21)c1ccc(OC(=O)c2ccccc2)cc1
 : ·	4%	0.8%	-1%
13) CC(C)c1cc(C(C)C)c(S(=O)(=O)NNC(=O)c2ccncc2)c(C(C)C)c1
 : -8	-10%	1.6%	-8%
14) Cc1c(Cl)cccc1NC(=O)COC(=O)c1c2c(nc3ccccc13)CCN(Cc1ccccc1)C2
 : 10	4%	0.9%	-1%
15) CC1CC(=O)Nc2ccccc2N1C(=O)Nc1ccc(F)cc1 (configuration not stated)
 : 7	0%	-0.3%	0%
16) CCN(CC)CCn1c2c(c(SCC(=O)NCc3ccccc3)nc1=O)CCCC2
 : ·	-5%	-1.2%	·
17) O=C(CN1CCN(C(=O)c2ccccc2)CC1)Nc1ccc(Br)cn1
 : -9	-6%	-3.7%	1%
18) NS(=O)(=O)c1ccc(NC(=O)COC(=O)CCC2CCCC2)cc1
 : -1	-8%	-0.3%	1%
19) O=C(c1cc2cc(Cl)ccc2[nH]1)N1CCN(c2ccccc2F)CC1
 : ·	9%	?	3%
20) COc1cc(C)nc(OCCNS(=O)(=O)c2cc(C)ccc2C)n1
 : -3	-2%	-1.7%	-7%
21) Cn1cc(/C=C(\NC(=O)c2ccccc2)C(=O)NCCN2CCOCC2)c2ccccc21
 : ·	-33%	?	-5%
22) CCC(=O)Nc1ccc(C2C(=O)c3ccccc3C2=O)cc1
 : ·	-11%	0.4%	-11%
23) COc1cccc(OC)c1C(=O)OCC(=O)N1CCC(Cc2ccccc2)CC1
 : ·	-8%	-0.5%	·
24) Cc1cc(-c2nnc(SCc3ccccn3)o2)no1
 : 7	-6%	-2.0%	-20%
25) O=c1cc(N2CCc3ccccc32)[nH]c(=O)n1-c1ccc(Br)cc1
 : -4	-27%	?	-8%
26) CCC(CO)n1c(SCc2cc([N+](=O)[O-])cc3c2OCOC3)nc2ccccc2c1=O (configuration not stated)
 : -3	-17%	1.4%	-7%
27) O=C(c1ccc(Cl)c(S(=O)(=O)N2CCCCCC2)c1)N1CCOCC1
 : -3	-9%	0.0%	-2%
28) Cc1cc(C(F)(F)F)nc(SCC(=O)NC2CCCCC2)n1
 : ·	10%	8.3%	-2%
29) Cc1ccnc2nc(C(=O)OCC(=O)c3ccccc3)nn12
 : ·	-1%	4.1%	·
30) COc1ccc(/C=N/NC(=O)c2ccoc2C)cc1COc1c(C)cccc1C
 : -4	-3%	4.7%	19%
31) O=C(Nc1ccccc1)/C(=C/c1ccc2c(c1)OCO2)NC(=O)c1ccco1
 : 2	-18%	-0.4%	-4%
32) CC(=O)N(C)c1ccc(NS(=O)(=O)c2cccc3nsnc23)cc1
 : ·	4%	-0.2%	-7%
33) Cc1ccc(C)n1-c1cccc(S(=O)(=O)N2CCOCC2)c1
 : 0	2%	-0.8%	2%
34) O=C(NCc1ccco1)c1ccc(COc2cccc3ccccc23)cc1
 : -1	-4%	2.9%	-22%
35) CCCc1cc(=O)oc2cc(OC3CCCCC3=O)ccc12 (configuration not stated)
 : ·	14%	-1.0%	-14%
36) COc1ccc2oc(C(=O)OCC(=O)NCc3ccccc3OC)c(C)c2c1
 : ·	-12%	?	·
37) COc1cccc(CC(NC(C)=O)C(=O)NC2CCN(C(=O)c3ccc(Cl)cc3)CC2)c1OC (configuration not stated)
 : ·	8%	0.4%	1%
38) CN(c1ccccc1)S(=O)(=O)c1ccc(Cl)c(C(=O)Nc2ccccc2N2CCOCC2)c1
 : ·	-6%	-0.3%	·
39) CS(=O)(=O)N1CCN(Cc2ccccc2C(F)(F)F)CC1
 : 21	-1%	-5.0%	-8%
40) COc1ccc(N2CCN(CCCNC(=O)C3CCC(CNc4nc(=S)[nH]c5ccccc45)CC3)CC2)cc1 (configuration not stated)
 : 2[21.1 µM]	-11%	4.2%	-3%
41) Cc1ccc(Nc2nc(CSc3nnc(-c4cccnc4)n3-c3ccccc3F)cs2)cc1
 : 0	10%	1.1%	-30%
42) COc1cccc(/C=N/NC(=O)c2cc(-c3cccn3C)n[nH]2)c1
 : -2	5%	-0.4%	-2%
43) COc1ccc(/C=N/NC(=O)Cn2nc(C)c([N+](=O)[O-])c2C)cc1
 : -1	35%	3.0%	-1%
44) COc1ccc(C(=O)NC(=S)NNC(=O)c2ccco2)cc1
 : ·	8%	0.5%	-1%
45) Cc1cc(C)cc(NS(=O)(=O)c2ccc(NC(=S)NC(=O)c3cccs3)cc2)c1
 : -5	0%	-0.1%	?
46) CC(CCc1ccc(O)cc1)NC1C2CC3CC(C2)CC1C3 (configuration not stated)
 : -14	4%	-1.1%	-10%
47) CN1CCN(CCNC(=O)c2ccc3nc(-c4ccc(F)cc4)c(-c4ccc(F)cc4)nc3c2)CC1
 : ·	-4%	0.6%	6%
48) Clc1ccc(CSc2nnc(-c3sccc3-n3cccc3)o2)cc1
 : 0	-9%	0.1%	-2%
49) O=C(Cc1ccccc1)NC(C(=O)O)C(O)c1ccc([N+](=O)[O-])cc1 (configuration not stated)
 : ·	-15%	-0.2%	-1%
50) CCOC(=O)c1sc(NC(=O)C2CCCO2)c(C(=O)OCC)c1C (configuration not stated)
 : 1	·	·	-9%

Three entries from above, ordered by SMILES length, lowest first.
Value order: GLA inh pH 4.5	Rango dissoc inh	Rango-impB inh	miR-21 FLuc
46) CC(CCc1ccc(O)cc1)NC1C2CC3CC(C2)CC1C3 (configuration not stated)
 : -14	4%	-1.1%	-10%
44) COc1ccc(C(=O)NC(=S)NNC(=O)c2ccco2)cc1
 : ·	8%	0.5%	-1%
48) Clc1ccc(CSc2nnc(-c3sccc3-n3cccc3)o2)cc1
 : 0	-9%	0.1%	-2%

(further entries)
Value order: GLA inh pH 4.5	Rango dissoc inh	Rango-impB inh	miR-21 FLuc
51) O=C(CSc1ccc2nnc(-c3cccnc3)n2n1)Nc1ccc(F)cc1
 : ·	2%	1.0%	-9%
52) CCC1CCCCN1CC(=O)Nc1ccc2c(c1)OCCO2 (configuration not stated)
 : ·	-5%	-1.0%	·
53) CC(=O)c1ccc(OC(=O)Cc2cccc3ccccc23)cc1
 : ·	1%	-2.8%	0%
54) COc1ccc(NC(=O)COC(=O)c2ccc(Br)o2)cc1OC
 : -3	-11%	0.3%	-1%
55) O=C(Nc1nccs1)C1CCN(S(=O)(=O)c2ccccc2)CC1
 : ·	7%	-1.5%	0%
56) C#CCOc1c(/C=C\c2nc(O)c([N+](=O)[O-])c(=O)[nH]2)cc(Br)cc1OC
 : ·	-13%	0.2%	-9%
57) Cc1ccc(CNC(=O)COc2ccc3c(c2)CCC3)cc1
 : 12	-14%	?	-5%
58) O=C1NC(CCO)C(=O)NC1CCO (configuration not stated)
 : ·	-5%	1.9%	·
59) C#CCN1C=CC(=O)[C@@H](OC(=O)Nc2ccccc2Br)[C@H]1c1ccccc1Br
 : ·	-6%	4.2%	·
60) CCc1nccn1S(=O)(=O)c1ccc(OC)c(OC)c1
 : 9	-3%	0.3%	-5%
61) COc1ccc2cc(C(=O)NCc3ccccc3)c(=O)oc2c1
 : ·	20%	1.1%	-4%
62) O=C(CN1CCN(c2ccccn2)CC1)Nc1ccc(F)c(F)c1
 : ·	14%	0.1%	-6%
63) O=C(Cc1ccc(Cl)cc1)Nc1ccc(Cl)cn1
 : ·	-6%	?	-28%
64) CNC(=O)C(=O)N1CCC2(CC1)OCCN2S(=O)(=O)c1ccc(C)cc1
 : ·	2%	-0.5%	·
65) CCCNC(=O)[C@H]1N2C(=O)c3c(ccc(OC)c3OC)C2SC1(C)C (some centres not stated)
 : ·	-16%	-0.2%	-2%
66) CCOc1ncccc1C(=O)N1CCN(c2cc(Cl)ccc2C)CC1
 : 5	-8%	-0.9%	29%
67) COc1ccc(-n2c(-c3ccc(Br)cc3)c[n+]3c2CCCCC3)cc1
 : 3	-17%	2.1%	?
68) O=C(O)c1cc(N/N=C/c2ccc3c(c2)OCO3)ccc1Cl
 : 7	2%	-0.9%	-52%
69) O=C1c2ccc3c4c(ccc(c24)C(=O)N1Cc1cccnc1)C(=O)N(Cc1cccnc1)C3=O
 : -3	·	·	-15%
70) CCOc1ccc2nc(NC(=O)CS(=O)(=O)c3ccccc3)sc2c1
 : -3	-7%	2.0%	-20%
71) CC(=O)c1ccc(OC(C)C(=O)NC2CCCCC2C)cc1 (configuration not stated)
 : ·	-13%	-0.2%	·
72) CN(Cc1nccn1C)C(=O)C1CCC(=O)N(Cc2cccc(C(F)(F)F)c2)C1 (configuration not stated)
 : ·	?	-1.2%	0%
73) COc1ccccc1-c1sc2cc3c(cc2c1C#CC1(O)CCCCC1)OCO3
 : ·	1%	7.0%	·
74) CCOC(=O)c1cc2c(ccn2C)n1Cc1ccc(C#N)cc1
 : -7	-17%	2.3%	-13%
75) Cc1[nH]c2ccccc2c1Cc1nnc(SCC(=O)NCc2ccco2)o1
 : 3	-8%	-0.2%	1%
76) CN(C)S(=O)(=O)c1cccc(-c2nnc(SCC(=O)NCCCCCC(=O)O)n2-c2ccc(F)cc2)c1
 : 0	3%	4.8%	-22%
77) COc1ccc(NC(=O)C2Cc3cc(S(=O)(=O)N4CCCCC4)ccc3N2C(C)=O)cc1Cl (configuration not stated)
 : ·	-5%	-3.4%	9%
78) CCOC(=O)c1c(C)[nH]c(C(=O)C(C)OC(=O)c2oc3ccccc3c2COC)c1C (configuration not stated)
 : 3	-1%	-0.1%	-11%
79) Cc1ccc(NC2CC(=O)N(Cc3ccccc3)C2=O)cc1 (configuration not stated)
 : 3	-6%	0.6%	-3%
80) Cc1nc2c(-c3ccccc3)c(C)[nH]n2c(=O)c1Cc1ccccc1
 : 4	0%	-0.3%	24%

Only part of the results is shown; count on the stated rates, not on these rows.
